# Bioassay records deposited in PubChem BioAssay by several laboratories.
# RecA splice inh – blocks M. tuberculosis RecA intein splicing; P9WHJ3; cell-free RecA intein splicing, fluorescence; inhibition, %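 (about 9 µM by stock and volumes)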; hit rate 0.75% among 290,000; in the data active = inhibition above about 30%; inconclusive = no clear call, values can overlap the other calls;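 also: 0% = vehicle wells and 100% = reference inhibitor control wells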
# Target sequence (P9WHJ3 whole entry, looked up, canonical isoform): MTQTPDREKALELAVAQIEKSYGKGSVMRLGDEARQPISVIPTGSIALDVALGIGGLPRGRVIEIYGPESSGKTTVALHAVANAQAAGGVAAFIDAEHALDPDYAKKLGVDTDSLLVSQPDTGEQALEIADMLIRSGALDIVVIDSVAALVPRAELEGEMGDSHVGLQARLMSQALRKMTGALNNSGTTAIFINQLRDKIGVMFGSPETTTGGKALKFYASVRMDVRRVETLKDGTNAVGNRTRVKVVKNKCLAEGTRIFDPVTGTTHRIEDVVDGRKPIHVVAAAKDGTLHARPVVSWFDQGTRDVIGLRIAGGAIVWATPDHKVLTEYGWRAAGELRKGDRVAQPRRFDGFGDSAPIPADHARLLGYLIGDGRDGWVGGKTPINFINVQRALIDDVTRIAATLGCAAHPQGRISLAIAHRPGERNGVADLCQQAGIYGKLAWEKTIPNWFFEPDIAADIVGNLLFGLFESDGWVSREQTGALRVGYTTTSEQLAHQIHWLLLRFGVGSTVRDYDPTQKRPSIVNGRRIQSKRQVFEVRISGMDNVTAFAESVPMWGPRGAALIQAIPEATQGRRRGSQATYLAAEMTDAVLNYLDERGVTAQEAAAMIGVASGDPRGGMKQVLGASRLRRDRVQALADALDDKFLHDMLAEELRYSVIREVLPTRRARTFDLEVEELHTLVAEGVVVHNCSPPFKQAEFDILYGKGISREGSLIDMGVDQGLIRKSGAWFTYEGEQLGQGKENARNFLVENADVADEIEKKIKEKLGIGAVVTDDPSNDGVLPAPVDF
# Arbovirus inh – blocks arbovirus infection. arbovirus infection cell-based antiviral screen. AID 1251. inhibition, % at 10 µM. hit rate 0.37% among 200,000;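 active = inhibition from about 30%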;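 also: bluetongue infection of BSR cells; cell survival read as ATP light after 72 h; 0% = infected wells without compound and 100% = uninfected wells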
# YopH inh – blocks Yersinia enterocolitica YopH tyrosine phosphatase; fluorescence Ex485/Em525; inhibition, %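 (about 10 µM by stock and volumes)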; hit rate 0.16% among 140,000; AID 898;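 active = inhibition of 50% or more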;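 also: controls were vehicle for no effect and minimum signal wells for full effect; inactives centre near -20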
# Mtb betalactam – beta-lactam sensitization of Mtb H37Rv | M. tuberculosis H37Rv growth with meropenem, percent inhibition; hits of this screen are not shown here | hit rate 0.27% among 330,000 | AID 434955 | inhibition, % at 25 µM;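 active = about 74% or more and at least 40 points above the plate without the antibiotic, then above 30% in a dose series; inconclusive = first-round hits that could not be retested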;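 also: growth measured after seven days incubation then overnight dye step; 0% = bacteria only wells and 100% = bacteria with antibiotic; twin plates without the antibiotic show which effects depend on it; some results filed as inactive read as strong as hits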
# Mtb growth – M. tuberculosis H37Rv growth inhibitors, H37Rv strain (AID 1626). M. tuberculosis H37Rv growth inhibition; higher % means a stronger effect. inhibition, % at 10 µM, or IC50 in µM where a hit was titrated. hit rate 0.95% among 220,000;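 active = confirmed in a dose series; inconclusive = inhibition above 80% but not taken into the dose series; inactive = below 80% or under 30% at every dose of the series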;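 also: bacteria incubated seven days before Alamar blue readout; 0% = bacteria only wells and 100% = bacteria with antibiotic wells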
# Arbovirus inh repeat – also measured in Arbovirus inh; calls as there; inhibition, %; measured here: 10K subset replicate screen; many hits read low in the repeat;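 first of two repeat runs on a subset; 0% = infected and 100% = uninfected wells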
# Active calls of the source: *; ? = inconclusive; / = not tested or not shown. The list is partial. The share of hits here may be higher or lower than overall.
SMILES,RecA splice inh,Arbovirus inh,YopH inh,Mtb betalactam,Mtb growth,others
CCn1ncc(CNC(=O)c2cccc([N+](=O)[O-])c2)c1C,-1.4,6,-23,7,-5%,
CCn1c(=O)c2cc(C(=O)NCCCOC)sc2c2ccccc21,-1.5,/,/,-2,/,
CC(=O)C1=C(c2cccc([N+](=O)[O-])c2)N(C(C)=O)n2c(C)nnc2S1,2.4,-6,/,5,7%,
COC(=O)c1[nH]c2cccc(C)c2c1NC(=O)CN1CCCc2ccccc21,-2.4,3,5,-3,-1%,
Cc1c(Br)c(=O)[nH]c(=O)n1COCc1ccccc1,-0.2,9,-47,1,-8%,
Cc1cc(C)nc(NC(=O)NC(=O)c2ccccc2)n1,0.2,/,/,4,/,
COCCNCC(=O)C12CC3CC(CC(C3)C1)C2,0.8,-1,-29,2,-8%,
Cc1nn2c(NCc3ccccn3)cc(C(C)(C)C)nc2c1-c1ccccc1,2.5,/,/,100,69%,
Nc1ccccc1Oc1ccc2ccccc2c1,5.9,-26,/,8,5%,
Nc1ccc(S(=O)(=O)c2cccc(N)c2)cc1,-2.2,-4,-45,-6,-2%,
CCCN(Cc1nnc(-c2ccccc2Cl)o1)C(=O)c1ccc(C)c(S(=O)(=O)N2CCOCC2)c1,3.8,/,/,-13,/,
CC(C)CC(=O)Nc1nnc(S(=O)(=O)Nc2ccccc2)s1,1.0,/,/,-2,/,
Cn1c(=O)c2c3c(sc2n2c(SCC(N)=O)nnc12)CC(C(C)(C)C)CC3 (stereo not drawn),2.2,-26,-8,96,?,
O=C(C1COc2ccccc2O1)N1CCN(c2ccccc2F)CC1 (stereo not drawn),4.7,13,-27,-6,9%,
COc1ccc(C2C(C#N)=C(N)OC3=C2C(=O)CC(C)(C)C3)cc1Cn1nc(C)c([N+](=O)[O-])c1C (stereo not drawn),0.8,19,-30,2,5%,
CCC(=O)N1CCN(c2ccc(NC(=O)c3cc4ccccc4o3)cc2)CC1,/,-7,-7,82,5%,
CC1=C(C(=O)OCc2ccccc2)C(c2ccc(Cl)cc2Cl)NC(=O)N1CCCC(=O)O (stereo not drawn),/,8,-35,-12,2%,
O=C1NC(Cc2ccccc2)C(=O)Nc2ccc(Br)cc21 (stereo not drawn),1.2,/,/,3,/,
O=C(CSc1ncnc2sc3c(c12)CCCC3)N1CCC(c2noc3ccc(F)cc23)CC1,-4.1,12,1,100,2.9µM*,
COc1ccc2c(C)c(C(=O)N3CC[C@@H](N4CCC(O)CC4)[C@H](O)C3)oc2c1,-0.3,/,/,-8,/,
C=CCOc1ccc2ccccc2c1/C=N/O,-1.6,9,2,34,-7%,
CN(C)S(=O)(=O)c1cccc(C(=O)OCC(=O)c2ccc3c(c2)NC(=O)CO3)c1,-1.0,-7,-12,-4,-4%,
CC(C)(Oc1ccc(Cl)cc1)C(=O)NC1CCN(Cc2ccccc2)CC1,0.9,/,/,-10,/,
CCn1cc([N+](=O)[O-])c(C(=O)Nc2c(C)nn(Cc3c(F)c(F)c(F)c(F)c3F)c2C)n1,-1.7,8,-1,-8,3%,
C/C(=N\NS(=O)(=O)c1cccc([N+](=O)[O-])c1)c1cc2ccccc2o1,-2.5,17,-4,2,-4%,
COc1ccc(-c2cc(C(=O)N3CC4(C)CC3CC(C)(C)C4)no2)cc1 (stereo not drawn),-1.3,-4,-12,70,8%,
CCOC(=O)c1cccc(NC(=O)CSc2nnc(-c3cccnc3)n2CC)c1,0.0,-2,-25,0,1%,
Cc1ccc(N(C(=O)c2snc(C(N)=O)c2N)C(C(=O)NCC2CCCO2)c2ccc(C)o2)c(C)c1 (stereo not drawn),-9.1,/,/,7,/,
Cc1ccccc1N1CCN(C(=S)c2ccc(-c3ccc([N+](=O)[O-])cc3)o2)CC1,5.3,/,/,-4,/,
Cn1ncc(Cl)c1C(=O)NNC(=O)Nc1cccc2ccccc12,1.9,/,/,-1,/,

# 2 neighbouring compounds from above, for reference:
SMILES,RecA splice inh,Arbovirus inh,YopH inh,Mtb betalactam,Mtb growth,others
CCn1ncc(CNC(=O)c2cccc([N+](=O)[O-])c2)c1C,-1.4,6,-23,7,-5%,
CCn1c(=O)c2cc(C(=O)NCCCOC)sc2c2ccccc21,-1.5,/,/,-2,/,

# Later entries.
SMILES,RecA splice inh,Arbovirus inh,YopH inh,Mtb betalactam,Mtb growth,others
CCCOC(=O)Cc1n[nH]c(=O)[nH]c1=O,0.2,6,-44,-2,-4%,
O=C(Cc1ccc(Cl)cc1)N/N=C1\CCCc2ccccc21,/,11,-15,4,-2%,
COc1ccc(CNC(=O)/C=C/c2ccc(S(=O)(=O)NCc3ccco3)cc2)cc1OC,0.3,8,-24,9,3%,
COc1cc2cc(C(=O)O)n(C)c2c(OC)c1OC,-1.0,9,-31,-11,-2%,
O=C(N/N=C/c1cccc(O)c1)c1ccc(NC(=O)C2CCCCC2)cc1,-0.9,/,/,-2,/,
Cc1ccc(CCNS(=O)(=O)c2ccc3c(c2)N(C)CCO3)cc1,3.6,/,/,-1,/,
O=[N+]([O-])c1ccc(Nc2ccc(F)cc2)nc1,9.8,4,-10,2,-5%,
Cc1nc2ccc(Cc3ccc4nc(C)[nH]c4c3)cc2[nH]1,-1.8,23,-37,-17,4%,
CCn1c(Cc2ccccc2)nnc1SCC(=O)Nc1ccc2c(c1)OCCO2,-1.6,0,-1,-8,-13%,
c1ccc(-c2nc3c4ccccc4ccn3c2CN2CCOCC2)cc1,2.7,/,/,0,1%,
Nc1ccc(C(=O)OCC(=O)N2CCc3ccccc3C2)cc1[N+](=O)[O-],5.7,3,-7,5,-5%,
O=C(CSc1ccccc1)Nc1nnc(C2CC2)s1,-8.0,/,/,5,/,
CC(C)NC(=S)N1CCN(Cc2ccc3c(c2)OCO3)CC1,-4.6,2,/,4,-3%,
O=C(CN1CCN(CC(=O)Nc2ccc(OCc3ccccc3)cc2)CC1)Nc1ccc(F)cc1,-3.6,/,-39,93,34µM*,
COc1ccccc1-c1n[nH]c(=S)n1Cc1ccccc1,-0.2,/,/,-1,/,
CCCOc1ccc(CCc2n[nH]c(=S)n2-c2ccccc2)cc1,3.2,0,/,-4,13%,
Cc1cc(C)c2c(N)c(-c3nnc(SCc4ccc(Cl)cc4)n3C)sc2n1,-1.5,/,/,13,-4%,
N#C/C(=C\c1ccc(OCc2ccccc2)cc1)C(=O)Nc1nc2c(s1)CCN(Cc1ccccc1)C2,-2.4,-6,-8,-4,-4%,
C/C(=N\N=C(N)N)c1ccccc1,3.5,/,/,-5,2%,
COc1ccc(NS(=O)(=O)c2ccc(N3CCOCC3)c(NC(=O)C(C)C)c2)cc1,-5.0,12,/,-1,6%,
O=C(NC1CCCc2ccccc21)c1ccc([N+](=O)[O-])cc1 (stereo not drawn),3.0,/,/,1,/,
Cc1ccc(-c2cc(C(=O)Nc3cccc(S(=O)(=O)N(C)C)c3)c3ccccc3n2)o1,4.2,/,/,2,/,
CC(C(=O)Nc1ccccn1)N1C(=O)C2C3C=CC(C3)C2C1=O (stereo not drawn),-1.0,3,-36,-3,-7%,
CC(=O)NC1C(=O)N=C(SCC(=O)NC(C)c2ccccc2)NC1=O (stereo not drawn),-5.9,2,-38,6,/,
O=C(NCc1ccccc1)NC(=O)c1ccc(Cl)cc1,1.9,/,/,-6,/,
COc1ccc(/C=C/C(=O)OCC(=O)Nc2ccc(C)cc2)cc1S(=O)(=O)N1CCOCC1,-2.1,-7,-28,2,3%,
Cn1c(=O)c2c(c3ccccc31)OC(C)(C)CC2,1.8,-1,-19,-1,1%,
O=S1(=O)N=C2CCCCCN2C(c2ccc(Cl)cc2)N1 (stereo not drawn),-0.4,2,/,7,-7%,
CCOC(=O)CSc1nnc(CNC(=O)c2ccc(S(=O)(=O)N(C)C)cc2)n1C,-0.3,3,/,1,1%,
CCc1cccc(CC)c1NC(=O)c1ccc(-n2cncn2)nc1,3.6,0,/,-2,9%,
CCCCn1c(SCc2nc3ccccc3s2)nc2ccccc2c1=O,1.9,-19,-17,6,5%,
Cc1sc2nc(N3CCOCC3)[nH]c(=O)c2c1-c1ccccc1,-3.3,2,-33,2,7%,
CCCNC(=O)NC1C(NC(=O)NCCC)N(C)C(=O)N1C (stereo not drawn),-1.9,0,-26,-17,1%,
Cc1sc2ncnc(N3CCC(C(=O)Oc4cccc(Cl)c4Cl)CC3)c2c1C,-0.6,0,/,96,10%,
CCCCN(C)Cc1c(C)[nH]c2ccc(C)cc2c1=O,1.2,3,6,0,-1%,
CSc1ccc(C2NC(=O)c3ccccc3N2)cc1 (stereo not drawn),-1.8,/,/,0,/,
COC(=O)C1CCN(C(=O)Cc2ccccc2OC)CC1,3.2,3,/,4,-6%,
COc1ccc(C2C(C(=O)N3CCOCC3)=C(C)NC3=C2C(=O)CC(C)(C)C3)cc1O (stereo not drawn),-7.4,0,5,-7,-6%,
CC(C)CN(CC(C)C)C(=O)CS(=O)(=O)Cc1ccccc1,-1.4,1,-35,2,-9%,
CN(C)S(=O)(=O)Oc1ccccc1C(=O)Nc1cccc(C(F)(F)F)c1,/,7,-22,1,-10%,
COc1ccc(-c2oc(NC(=O)CCl)c(C#N)c2-c2ccc(OC)cc2)cc1,90*,-25,5,98,9%,
COc1cc(NC(=S)N2CCOCC2)c(OC)cc1Cl,-1.6,/,/,3,7%,
CCN(Cc1ccccc1)C(c1ccc(Cl)cc1)c1nnnn1C(C)(C)C (stereo not drawn),1.1,-2,-9,1,-23%,
Cc1ccc(S(=O)(=O)Nc2cccc(-n3cnnn3)c2)cc1C(=O)O,2.1,/,/,?,/,
CCCCn1c(N)c(N(CC(C)C)C(=O)c2ccc(Br)s2)c(=O)[nH]c1=O,0.9,/,/,-10,/,
Cc1nc(-c2ccc(Cl)cc2)sc1C(=O)NNC(=O)C(C)C,-1.1,/,/,-6,-5%,
O=C1NC2(CCCCCC2)C(=O)N1Cc1cccc(Cl)c1,1.1,/,/,3,/,
COc1ccc(-c2nnc3ccc(SCc4ccccc4)nn23)cc1,-3.7,-2,/,0,/,
CC#CCCc1nc2ccccc2c(=O)n1N,-1.1,1,-24,3,1%,
O=C(CSc1nnc(COc2cccc3ccccc23)o1)N1CCN(C(=O)c2ccco2)CC1,0.5,6,-28,20,31%,
O=C1c2ccccc2C(=O)N1CCC(c1ccc(F)cc1)c1ccco1 (stereo not drawn),8.2,-1,-30,-10,-4%,
CC1CCN(C(=O)C2CCN(c3ncnc4c3nc3n4CCCCC3)CC2)CC1,-6.0,/,/,100,/,
COCCCN(C(=O)Cc1ccc(Cl)c(Cl)c1)c1c(N)n(Cc2ccccc2)c(=O)[nH]c1=O,0.7,/,/,-7,-5%,
COc1ccc(N2C(=O)NC(=O)C(CCc3ccncc3)(CCc3ccncc3)C2=O)cc1,-1.2,5,-23,-1,-6%,
CCOc1ccc(Oc2c(/C=N/NC(=O)COc3ccccc3OC)c(C)nn2-c2ccccc2)cc1,8.4,-19,-5,60,27%,
O=c1[nH]c2ccc(S(=O)(=O)Nc3ccc(Cl)cc3)cc2[nH]1,3.4,/,/,7,/,
CCN(CC)S(=O)(=O)c1ccc2c(c1)nc(CCC(=O)OCC(=O)N1CCc3ccccc31)n2C,1.4,-1,-36,-2,7%,
Cc1ccsc1-c1nc(-c2ccccc2)c(-c2ccccc2)[nH]1,-3.6,-6,-25,-4,-7%,
CCCCCn1c(CNC(=O)COC)nc2ccccc21,3.4,1,-11,-2,-11%,Arbovirus inh repeat=2
COc1cccc(/C=C/C(=O)OCC(=O)NCC2CCCO2)c1 (stereo not drawn),-0.9,-6,-17,7,3%,

# 5 structures out of the list, sorted by length of the SMILES, descending:
SMILES,RecA splice inh,Arbovirus inh,YopH inh,Mtb betalactam,Mtb growth,others
CCOc1ccc(Oc2c(/C=N/NC(=O)COc3ccccc3OC)c(C)nn2-c2ccccc2)cc1,8.4,-19,-5,60,27%,
CC1CCN(C(=O)C2CCN(c3ncnc4c3nc3n4CCCCC3)CC2)CC1,-6.0,/,/,100,/,
O=c1[nH]c2ccc(S(=O)(=O)Nc3ccc(Cl)cc3)cc2[nH]1,3.4,/,/,7,/,
COc1ccc(-c2nnc3ccc(SCc4ccccc4)nn23)cc1,-3.7,-2,/,0,/,
CC#CCCc1nc2ccccc2c(=O)n1N,-1.1,1,-24,3,1%,

# Continuation.
SMILES,RecA splice inh,Arbovirus inh,YopH inh,Mtb betalactam,Mtb growth,others
CC1CC1C(=O)OCC(=O)NCc1ccccc1Cl (stereo not drawn),-2.6,15,-45,86,6%,
COc1ccc([N+](=O)[O-])cc1N=Cc1c(O)n(CCc2ccccc2)c(=O)n(C(C)C)c1=O,3.7,0,6,1,9%,
O=C(Cc1ccccc1)N/N=C/c1ccc2cccc(O)c2n1,0.8,0,/,100,23%,
Cc1cc(NC(=O)CCCn2cnc([N+](=O)[O-])n2)no1,0.0,-1,/,-15,-2%,
